# Screens (PubChem BioAssay)
# ugtP null kill = growth inhibition of ugtP-null S. aureus, primary screen, RN4220 ugtP deletion, OD600; 330,000 compounds, 0.54% hits; 16 h; some inactives read as strong as hits; growth inhibition, % (no concentration beside the values);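 active means z-score under -3 and OD600 up to 0.15 on both plates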;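 further: plate controls were untreated wells for no effect and antibiotic for full effect; wells of about 80 µL received 100 nL stock; the first replicate is given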
# Bead autofluor = compound fluorescence in toxin protease inhibitor counterscreen | 360,000 compounds, 3.1% hits | compound autofluorescence counterscreen, microsphere flow cytometry; active compounds read high | AID 624483 | fluorescence intensity (no concentration beside the values);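 active means at least 3 SD above the mean of all compounds, about 16000 in these data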;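 further: 100 nL of 1 mM stock went into each well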
# BJeLR viability = MLPCN primary cell-based screen for lethality selective to Ras in HRASV12 cells. BJeLR (HRASV12) viability, CellTiter-Glo ATP luminescence, 48 h; reference of the scale not given here. inhibition, % (concentration not given with the values). 300,000 compounds, 0.17% hits;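 active means replicate mean above 50%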;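 further: 50 nL library stock added to about 25 µL; numbers are from one replicate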
# PrP 5UTR inh = inhibition of PrP 5' UTR reporter expression; cell-based PrP 5' UTR mRNA reporter, plate reader; inhibition, % (test concentration not listed); 340,000 compounds, 0.35% hits; AID 488862, 2010;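 active means every replicate at 50% or more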;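 further: 0 = median of the neutral control wells; tested in H4 reporter cells; numbers are from one replicate; inactives centre near -14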
# RN4220 kill = growth inhibition of S. aureus RN4220, primary screen, OD600 | 16 h | inhibition, % (test concentration not listed) | 330,000 compounds, 0.33% hits;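 active means z-score of -3 or lower and OD600 up to 0.18 on both plates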;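 further: plate controls were untreated cells for no effect and reference antibiotic for full effect; stock transfer was 100 nL into about 80 µL; one replicate is shown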
# Mtb hypoxia inh = PubChem AID 1159583; M. tuberculosis hypoxia-regulated fluorescent reporter, fluorescence; fluorescence inhibition, % (test concentration not listed); 300,000 compounds, 0.1% hits;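 active means 35 to 45% if threefold the growth effect, above 45% if 1.5-fold the growth effect; inactive means the rest, general growth blockers included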;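 further: wells of about 50 µL received 100 nL stock; 0% = vehicle wells and 100% = reference inhibitor wells; whole bacteria with a GFP reporter of the hypoxia response; strong numbers were not always called active; many hits fall short of the cut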
# Mtb hypoxia inh growth = second read-out of Mtb hypoxia inh, no call of its own (marks repeat the call); growth inhibition, %; measured here: M. tuberculosis growth (absorbance);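 0% = vehicle and 100% = reference antibiotic; read after six days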
# Numbers without * were called inactive; x = not tested or not shown.
SMILES	ugtP null kill	Bead autofluor	BJeLR viability	PrP 5UTR inh	RN4220 kill	Mtb hypoxia inh	Mtb hypoxia inh growth
CN1CCNC(=O)C1CC(=O)O (stereo unspecified)	-1	22031*	6	-18	1.2	1	-4
Cc1cc(C)nc(NN=C/C(Cl)=C/c2ccccc2)n1	-7	x	x	x	0.7	3	15
O=C(CN1CCN(c2ccccn2)CC1)Nc1ccccc1F	2	3305	9	-3	3.1	20	6
CCC1SC(C)C/C(=N/NC(N)=O)C1C (stereo unspecified)	x	4098	13	-18	x	x	x
O=C(O)c1c2c(nc3ccccc13)/C(=C/c1ccc(OC(F)F)cc1)CCC2	12	3693	-16	-20	4.8	5	4
Cc1nnc(SCC(=O)NC(C)(C)C)n1NCc1ccc(N(C)C)cc1	x	3717	2	-8	x	x	x
N#C/C(=C/c1ccc(F)cc1)S(=O)(=O)c1ccccc1	3	5730	7	-34	3.1	6	-4
COc1cc2ccc(=O)oc2cc1O	2	5690	x	-17	0.6	x	x
COc1ccc(-c2nc3cc(C)ccn3c2NC2CCCCC2)cc1SC1CCCCC1	-3	26575*	x	-14	-2.4	0	1
Cc1ccc(-c2c3c(=O)n(C)c(=O)n(C)c3cn2CCCN2CCOCC2)cc1	-5	3190	-5	5	-10.0	15	16
Cc1cc(C(=O)CSc2nncs2)c(C)n1-c1ccc2c(c1)OCO2	-6	6823	-6	-131	2.5	-5	-1
O=[N+]([O-])c1ccc(NN=C2CCCCC2c2ccccn2)cc1 (stereo unspecified)	4	x	x	x	-3.3	12	6
COc1ccc(CN2C3CCCC2CC(NC(=O)Nc2cccc(C)c2)C3)cc1 (stereo unspecified)	3	3685	-15	-12	-1.5	8	4
CCOc1ccc(CC(=O)NNC(=S)Nc2ccccc2)cc1Br	2	2168	-6	-8	11	x	x
Cc1ccc(S(=O)(=O)c2c(CO)c(-c3ccccc3)nn2C)cc1	8	3617	4	-18	4.8	5	2
O=C(c1ccc(S(=O)(=O)c2ccc(Cl)cc2)cc1)N1CCOCC1	6	4005	5	-25	3.1	9	-3
C/C(Cn1nnc([N+](=O)[O-])n1)=N\NC(=O)c1ccccc1	x	10409	-8	-11	x	x	x
CN(CCNC(=O)C1CCCN(c2ncnc3c2nc2n3CCCCC2)C1)Cc1ccccc1 (stereo unspecified)	1	4408	-1	-5	0.1	-1	1
COc1ccc(C=Nc2oc(C)c(C)c2C#N)c(OC)c1	4	x	x	x	3.6	12	9
CC(=O)c1c(C)n(CCc2ccc(Cl)cc2)c2ccc(O)cc12	4	4095	4	-6	2.9	8	-8

# Continued.
SMILES	ugtP null kill	Bead autofluor	BJeLR viability	PrP 5UTR inh	RN4220 kill	Mtb hypoxia inh	Mtb hypoxia inh growth
CN(Cc1ccccc1)C(=O)CN(Cc1ccccc1)S(C)(=O)=O	0	3411	1	-5	-3.0	-7	-8
FC(F)(F)c1nc(SCc2ccccc2)n[nH]1	3	3280	-4	-2	3.7	0	10
O=C(COC(=O)/C=C/c1ccccc1)Nc1nnc(-c2ccccc2)o1	-4	6024	-4	-11	3.1	5	-2
CCOCCCN(C)C1CCN(C(=O)c2oc3ccccc3c2NC(=O)Cc2cccc([N+](=O)[O-])c2)CC1	7	4477	-8	-23	3.2	13	5
O=S(=O)(Nc1ccccn1)c1cc(Cl)ccc1Cl	6	3774	-4	-20	5.4	1	-1
COc1ccc(NC(=O)c2ccc(-c3ccc(OC)cc3)s2)cc1	3	3422	-15	-30	6.5	5	5
COc1cc(NC(=O)C/C(C)=N/NC(=O)c2cccs2)c(OC)cc1Cl	x	2228	2	-18	x	x	x
O=CN1CCN(C2CC(=O)N(c3ccc4c(c3)OCO4)C2=O)CC1 (stereo unspecified)	1	3299	2	-11	2.7	-9	6
Fc1ccc(-c2nnc(Cc3nnc(-c4ccc(F)cc4)o3)o2)cc1	4	22771*	x	-19	4.1	4	1
COc1ccccc1NC(=O)Cc1nn(C)c(=O)c2ccccc12	-3	4383	7	-14	8.2	18	7
CC(=O)Nc1cc(O)cc(O)c1	-2	4712	21	-13	1.9	1	-7
c1ccc2cc(OCCN3CCCC3)ccc2c1	7	8774	-6	-43	4.9	6	5
Oc1ccc(/C=N/Nc2ncc(Br)cn2)c(O)c1	x	2200	-8	-27	x	x	x
CCN(CC)S(=O)(=O)c1ccc(OC)c(NC(=O)COc2ccccc2[N+](=O)[O-])c1	4	4448	-4	-16	18	13	6
C[C@@H]1C[C@H](Nc2ccccc2)c2ccccc2N1C(=O)c1cccnc1	4	2554	8	-22	-2.8	7	5
C=CCNC(=O)N[C@@H](Cc1ccccc1)C(=O)OC	8	2841	-23	-2	4.2	7	2
O=C1CN(C(=O)COc2ncnc3ccccc23)c2ccccc2N1	-4	2474	2	-26	1.2	x	x
O=C(NCc1ccc(F)cc1)C1CCCN(S(=O)(=O)c2cccnc2)C1 (stereo unspecified)	3	3259	4	6	3.9	14	11
C=C1C(=O)[C@@]23C(O)CC4C(C)(C)CCC(O)[C@]4(C)C2CC(O)C1C3O (stereo partly specified)	8	x	x	x	14	x	x
COc1ccc(Cl)cc1NS(=O)(=O)c1cccc(C(=O)NCC2CCCO2)c1 (stereo unspecified)	9	5349	2	-11	7.8	5	3

# The list goes on.
SMILES	ugtP null kill	Bead autofluor	BJeLR viability	PrP 5UTR inh	RN4220 kill	Mtb hypoxia inh	Mtb hypoxia inh growth
Cc1cc(C)cc(NC(=O)c2cc(C)nn2C)c1	18	2517	-8	-26	3.3	11	1
O=C1c2cccc3cccc(c23)C(=O)N1CCCN(C(=O)c1cccs1)c1cccc(F)c1	2	2202	-16	-4	3.4	-2	3
Cc1ccc2c(c1)NCCO2	3	23601*	-3	3	2.3	4	-3
CCN(Cc1ccncc1)Cc1ccc(OC)cc1OC	0	3596	8	5	3.0	-10	-8
COc1ccc(NC(=O)CN(C)C(=O)c2cccc3ccccc23)cc1	2	5666	-5	-14	2.3	1	4
COC(=O)c1ccc(CNC(=O)C23CC4CC(CC(C4)C2)C3)cc1	-2	3610	5	-16	-5.5	3	7
COc1ccc(C(=O)NC(=S)N2CCOCC2)cc1OC	8	3269	5	-6	7.8	19	13
Cc1cc([N+](=O)[O-])cc(/C=N\NC(=O)C2COc3ccccc3O2)c1O (stereo unspecified)	x	4266	3	2	x	x	x
Cc1cc(C)nc(CCNC(=O)c2cc(COc3c(C)cccc3C)on2)n1	-2	5357	-3	-26	3.8	12	-7
CC(=O)Nc1ccc(S(=O)(=O)N(C)CC(=O)OC(C)C(=O)NC2CCCC2)cc1 (stereo unspecified)	-2	5203	12	-14	0.4	12	-3
CC(=O)N1CCC(c2c[nH]c3ccccc23)CC1	0	x	12	-16	-3.1	-10	2
O=C(O)C1CSC(c2ccccc2Cl)N1C(=O)c1ccc(Cl)cc1 (stereo unspecified)	-9	7433	-2	-11	2.5	-3	5
CCOC(=O)C1=C(SCC)c2cc3c(n2C1=O)CCCC3	4	3929	x	-24	0.3	x	x
CC(=O)c1ccc(Nc2cc(C)nc3ccccc23)cc1	5	4734	29	-48	3.3	-1	3
Cc1ccc(NC(=O)CSc2nc3c(c(=O)[nH]2)CCC3)c(C)c1	6	4941	4	-5	1.6	-10	2
CCc1nnc(NC(=O)c2ccc(Br)c(S(=O)(=O)N3CCOCC3)c2)s1	-3	3479	3	-17	-1.6	5	8
COc1ccc(C(c2c(C)[nH]n(C(N)=S)c2=O)C(C#N)C#N)cc1 (stereo unspecified)	1	4597	x	-6	2.3	6	3
COc1cc2cc(CN(CCc3ccccc3C)C(=S)NCCCN(C)C)c(=O)[nH]c2cc1OC	4	2039	3	-17	-1.5	18	10
Cc1nonc1CC(=O)N1CCCC(C(=O)c2cccc(C(F)(F)F)c2)C1 (stereo unspecified)	-64	3347	-11	10	-1.3	15	4
Oc1cc2c(cc1CN1CCN(c3ccc(F)cc3)CC1)OCO2	11	3677	13	-10	-3.3	6	-1

# The list continues:
SMILES	ugtP null kill	Bead autofluor	BJeLR viability	PrP 5UTR inh	RN4220 kill	Mtb hypoxia inh	Mtb hypoxia inh growth
Cc1ccc(CNC(=O)C2CN(S(C)(=O)=O)c3cc(Cl)ccc3O2)cc1 (stereo unspecified)	-6	3590	8	-16	5.3	8	-1
COc1cccc(C(=O)OCc2ccccc2C#N)c1O	8	6158	-3	-10	11	4	8
CCOc1ccc2nnnn2n1	1	3174	-1	-9	0.6	4	0
COc1ccc(/C=C2\SC(=S)N(CCC(=O)NCCCn3ccnc3)C2=O)cc1	0	6019	4	-16	4.2	5	10
COc1cccc(C(C(=O)NC2CCCC2)N(Cc2ccccc2OC)C(=O)c2ccco2)c1 (stereo unspecified)	6	3205	-1	-12	2.1	-3	0
O=c1c2c3c(sc2ncn1/N=C/c1ccco1)CCCC3	x	7521	-1	5	x	x	x
CCOC(=O)CN1N=C(/C=C/c2ccc(OC)cc2)CCC1=O	7	2205	1	0	2.7	x	x
COc1ccc(NC(=S)NCC2CCCO2)c(OC)c1 (stereo unspecified)	2	x	1	-8	1.4	16	5
O=C(CCC(=O)Nc1ccccc1Cl)NNC(=O)Nc1cccc([N+](=O)[O-])c1	9	4426	-4	-5	2.6	3	1
C=CCOc1c(Br)cc(CNc2nccs2)cc1OC	15	4245	-11	-15	1.7	5	5
Cc1ccc(Cl)cc1N1CCN(CC(O)COCc2ccco2)CC1 (stereo unspecified)	8	2444	5	-10	2.4	4	2
Cc1cccc2c(C(=O)N3CCCCC3)cc(-c3ccccc3)nc12	12	3651	0	-9	-1.8	-6	4
CN(C(=O)c1cccc(C#N)c1)c1nnc(-c2ccccn2)s1	6	2250	-5	-9	1.1	x	x
CCCCn1c(O)c(C=NC2CC3CCC2(C)C3(C)C)c(=O)[nH]c1=O (stereo unspecified)	0	6770	-1	-9	3.6	5	18
COc1ccc(/C=N/N(C)C2=NCCN2)c(OC)c1OC	x	2753	-8	-13	x	x	x
CCN(CC(=O)Nc1c(F)cccc1F)C(=O)c1nn(C)c(=O)c2ccccc12	8	4086	x	-28	0.1	5	7
Brc1ccc(CN2CCC3C=CCc4cccc(c43)C2)cc1 (stereo unspecified)	55	x	x	x	-5.3	-2	3
Cc1ccc(S(=O)(=O)N2CCC(C(=O)NCCCOC(C)C)CC2)cc1	-1	6005	-2	-29	2.6	6	5
CC(C)OC(=O)Cn1cnc2ccc(Br)cc2c1=O	1	3525	-1	-14	-0.7	x	x
CCc1nnc2c(NCCc3ccc(OC)c(OC)c3)nc3ccccc3n12	15	3901	13	-15	8.3	-9	-7

# (next part)
SMILES	ugtP null kill	Bead autofluor	BJeLR viability	PrP 5UTR inh	RN4220 kill	Mtb hypoxia inh	Mtb hypoxia inh growth
COC(=O)c1cccc(NC(=O)NC(=O)c2ccccc2Cl)c1	-10	4466	-2	15	1.4	9	11
CCC1(C)Cc2c(C#N)c(N)n(-c3ccccc3)c(=S)c2CO1 (stereo unspecified)	10	4951	4	-16	-0.3	2	-1
CN(CC(=O)NCCc1ccc(F)cc1)Cc1ccccc1	6	5498	0	-12	4.4	16	18
COc1ccc(-c2csc(N3CCN(Cc4ccc5c(c4)OCO5)CC3)n2)cc1	5	23035*	4	-5	4.5	7	7
O=C(c1cccs1)N1CCN(C(=O)C(c2ccccc2)c2ccccc2)CC1	-7	3725	0	-26	-1.3	2	2
Oc1c(Br)cc(Br)cc1C=Nc1cccc2ncccc12	12	x	2	-21	-7.5	-1	12

# Reformatted: three of the compounds above
smiles: COC(=O)c1cccc(NC(=O)NC(=O)c2ccccc2Cl)c1
  ugtP null kill: -10
  Bead autofluor: 4466
  BJeLR viability: -2
  PrP 5UTR inh: 15
  RN4220 kill: 1.4
  Mtb hypoxia inh: 9
  Mtb hypoxia inh growth: 11

smiles: COc1ccc(-c2csc(N3CCN(Cc4ccc5c(c4)OCO5)CC3)n2)cc1
  ugtP null kill: 5
  Bead autofluor: 23035*
  BJeLR viability: 4
  PrP 5UTR inh: -5
  RN4220 kill: 4.5
  Mtb hypoxia inh: 7
  Mtb hypoxia inh growth: 7

smiles: O=C(c1cccs1)N1CCN(C(=O)C(c2ccccc2)c2ccccc2)CC1
  ugtP null kill: -7
  Bead autofluor: 3725
  BJeLR viability: 0
  PrP 5UTR inh: -26
  RN4220 kill: -1.3
  Mtb hypoxia inh: 2
  Mtb hypoxia inh growth: 2
